2A firefly: FMDV 2A StopGo reporter, firefly signal; HEK cells with a luciferase reporter of 2A StopGo recoding; 120,000 tested, 0.23% active; AID 1745856; Potency, µM (highest dose often 57.5 µM), for inactives: at the highest dose signal change, negative = less light; active = well fitted falling curve with a large enough effect; inconclusive = small, poorly fitted or top-dose-only effect; inactive = no such curve, though single readings can be large or run the other way; also: nearly all actives have a fitted effect of over 60% in size; overnight with compound
StopGo RLuc: FMDV 2A StopGo reporter, Renilla signal; 120,000 tested, 0.32% active; HEK cells with a luciferase reporter of 2A StopGo recoding; Potency, µM (series often up to 57.5 µM), for inactives: at the top dose signal change, negative = less light; active means well fitted falling curve with a large enough effect; inconclusive means small, poorly fitted or top-dose-only effect; inactive means no such curve, though single readings can be large or run the other way; also: nearly all actives have a fitted effect of over 55% in size; overnight with compound
* = called active by the depositor; ? = inconclusive; [ ] = remark or other dose. % is scaled to controls: 0 for no effect and ±100 for the full control effect; potency is read from the fitted curve at half-maximal effect.

SMILES	2A firefly	StopGo RLuc
COc1ccc(OCCNC(=O)c2ccc3[nH]c(C)c(C)c3c2)cc1	53%[activator]	9%
CCC(CC)NC(=O)Cn1c(=O)c2c(ncn2CCOC)n(Cc2ccccc2)c1=O	0%	12%
CCc1ccc2c(c1)[C@]1(C(=O)N2)N2CCC[C@H]2[C@@H](C(=O)c2ccc(F)cc2)[C@]12C(=O)Nc1ccccc12	?	?
CN1CCN(C(CNC(=O)c2ccccc2)c2ccc3c(c2)OCO3)CC1 (stereo unspecified)	-9%	-7%
COc1ccccc1CNC(=O)CSc1cc(C)[nH]c(=O)n1	0%	-18%
Cc1cccc(NC(=O)Cn2cc(C(=O)c3ccccc3)c3ccccc32)c1C	-22%	-17%
O=c1cc(-c2ccccc2)sc2nnc(-c3ccc(Cl)cc3)n12	43%[activator]	-6%
CN(C)c1nc(N)nc(COc2ccccc2F)n1	0%	13%
Cc1ccc(Cl)cc1NC(=O)N1CCN(C)c2ncccc21	?	-10%
Cc1ccc(NC(=O)Cn2c(=O)n(CCCCCC(=O)NCc3ccc(F)cc3)c(=O)c3sccc32)c(C)c1	-12%	-20%
COc1cccc(CNC(=O)C(C)Oc2cccc(C)c2)c1 (stereo unspecified)	5%	6%
O=C1Nc2ccccc2Oc2cc(Oc3ccc(Cl)cc3)ccc21	-8%	12%
CCOc1ccc(C2c3c(-c4ccccc4)n[nH]c(=O)c3Nc3nnnn32)cc1 (stereo unspecified)	13%	8%
Cn1c(=O)c2c(ncn2CC(=O)N(C2CCCCC2)C2CCS(=O)(=O)C2)n(C)c1=O (stereo unspecified)	-11%	-11%
CSc1ccc(/C=C(\C#N)C(=O)Nc2ccc(C)cc2)cc1	0%	0%
Cc1c(C(=O)OC(C)C)sc(NC(=O)C2c3ccccc3Oc3ccccc32)c1C#N	?	?
O=C(CSc1nc2c([nH]c3ccccc32)c(=O)n1-c1ccc(F)cc1)NCc1ccc(F)cc1	-7%	2%
CC(=O)c1cccc(NC(=O)C2=CC(c3ccco3)=NS(=O)(=O)N2C)c1	40%[activator]	-11%
Cc1ccc(CNc2oc(COc3ccc(C)cc3)nc2C#N)cc1	36%[activator]	5%
Cc1ccc(NC(=O)Cn2c(=O)cc(C(=O)N3CCCC3)c3ccccc32)cc1F	-3%	38%[activator]
Cn1cc(/C=C2/CC(=O)N(c3ccccc3)C2=O)c2ccccc21	24%	-11%
Cc1cc(SCc2ccc(Cl)cc2)nc2ccccc12	7%	6%
COc1ccc(-c2cn3c(n2)sc2cc(C(=O)N4CCCCC4)ccc23)cc1	-31%	-10%
O=C(O)c1ccc(CNCc2ccc(-c3ccccc3)o2)cc1	23%	0%
Cc1ccccc1CNC(=O)c1ccc(-n2c(C)cc3c2CCCC3)cc1	-2%	0%

Next part; the last 2 above are carried over.
SMILES	2A firefly	StopGo RLuc
O=C(O)c1ccc(CNCc2ccc(-c3ccccc3)o2)cc1	23%	0%
Cc1ccccc1CNC(=O)c1ccc(-n2c(C)cc3c2CCCC3)cc1	-2%	0%
CCN(CC)CCNC(=O)Cn1ncc2c([nH]c3ccccc32)c1=O	-17%	-5%
COc1ccc(C(=O)Nc2ccc3c(c2)N(C2CCCC2)C(=O)c2ccccc2S3)cc1OC	?	10µM*
N#Cc1cccc(OCC(=O)c2ccc3c(c2)OCCO3)c1	0%	-8%[1.06 µM]
CC(=O)c1cccc(S(=O)(=O)NCC(=O)O)c1	-3%	7%
CC(=O)c1ccc(NC(=O)C(C)OC(=O)c2nn(-c3ccccc3)c(=O)c3ccccc23)cc1 (stereo unspecified)	0%	10%
COc1ccccc1COCC(O)Cn1nc(-c2cccs2)c2ccccc2c1=O (stereo unspecified)	6%	32%[activator]
Cc1cccc(OCc2nc(CC(=O)Nc3ccc(C)cc3C)cs2)c1	-1%	-18%
O=C(COC(=O)c1ccc2ccccc2n1)c1ccccc1	13%	-9%
Cn1c(CSc2nccn2-c2ccccc2)nc2c1c(=O)[nH]c(=O)n2C	1%	-9%
Cc1nn(-c2ccc3nncn3n2)c2c1C(c1ccccc1OCc1ccccc1)CC(=O)N2 (stereo unspecified)	-8%	-11%
Cc1cc(C)c(NC(=O)CSc2ncnc3ccccc23)c(C)c1	0%	-14%
CN1CCCCC1CCn1cnc2c1c(=O)n(C)c(=O)n2C (stereo unspecified)	-4%	-10%
COc1ccc(OC)c(-c2csc(NC(=O)c3nn(C)c(=O)c4ccccc34)n2)c1	25%	9%
Cc1cc2c3ccc(C)n3ccn2c1	13%	6%
O=[N+]([O-])c1cccc(Nc2nc(-c3ccccc3)nc3ccccc23)c1	-3%	3%
CC(=O)c1cccc(Oc2ccc(C#N)c(C#N)c2)c1	-9%	-29%
COc1c(CNC(C)c2nnc3n2CCC3)c(C(C)C)nn1C (stereo unspecified)	4%	-1%
Nc1nonc1C(=O)NCc1ccccc1	-1%	1%
O=S(=O)(Cc1ccccc1)Nc1cc(F)cc(F)c1	3%	106%[activator]
O=C(O)/C(=C/c1cccc(OCc2ccccc2)c1)c1cccs1	30%	-6%[1.06 µM]
Cc1ccc2c(c1)NC(c1cccnc1)=NC(c1ccc(F)cc1)=N2	69%[activator]	19%
Cc1cccc(C(=O)Nc2ccccc2N2CCOCC2)c1	-2%	-15%
Cc1cccc(C)c1-n1nnnc1SCC(=O)NCC1(N2CCOCC2)CCCCC1	-9%	-7%
CCc1ccccc1NC(=O)c1oc(=O)c2ccccc2c1-c1ccccc1	-22%	11%
O=C(/C=C/c1ccc(Cl)cc1)c1cc(Cl)cc(Cl)c1O	33%[activator]	-15%

More compounds:
SMILES	2A firefly	StopGo RLuc
O=C(Nc1ccc(F)c(F)c1)c1ccc(=O)n(Cc2ccc(F)cc2)c1	-5%	23%
O=C(COCc1cc(-c2ccc3c(c2)OCO3)on1)Nc1cc(C(F)(F)F)ccc1Cl	-6%	-11%
CC(C)c1ccc(NC(=O)Cn2nnc(C(=O)NCc3ccc(Cl)cc3)c2N)cc1	-2%	-5%
O=S(=O)(Nc1cccc(-c2ccc(N3CCCC3)nn2)c1)c1ccccc1C(F)(F)F	20%	38%[activator]
Cc1ccc(SC(Sc2ccc(C)cc2)(C(=O)c2ccccc2)C(=O)c2ccccc2)cc1	144%[activator]	-22%
CC1CCc2onc(C(=O)N3CCN(c4cccc(C(F)(F)F)c4)CC3)c2C1 (stereo unspecified)	21%	5%
COC(=O)c1ccc(/C=N/Nc2ccc(S(N)(=O)=O)cc2[N+](=O)[O-])cc1	0%	-8%
COc1ccc(-c2cc(C(C)=O)c(C)n2CCC(=O)Nc2cc(Cl)ccc2C)cc1	3%	-24%
O=C1CN(C(=O)COc2ccc(F)cc2F)c2ccccc2N1	12%	-6%
COc1ccc(-c2onc(C)c2C)cc1S(=O)(=O)Nc1ccc(OC(F)(F)F)cc1	-12%	280%[activator]
COC(=O)c1cc2oc3ccccc3c2n1CC(=O)Nc1ccc(C)cc1Cl	24%	-16%
Cc1ccc(NC(=O)CN2C(=O)CCn3nc(-c4cccn4C)cc32)c(Cl)c1	-1%	9%
Cc1nn(-c2ccc(N3CCCCC3)nn2)c(C)c1CCC(=O)Nc1cccc(F)c1	?	?
O=c1oc2ccc3ccccc3c2cc1-c1nnc(Nc2cccc(C(F)(F)F)c2)s1	0%	17%
CC(CNC(=O)c1ccc(CSc2nc3ccncc3n2Cc2ccccc2)cc1)c1ccccc1 (stereo unspecified)	5%	-23%
COc1ccc(-c2cc3nc(-c4ccc(Br)cc4)cc(C(F)(F)F)n3n2)cc1	-18%	-8%
CCC(=O)N1CCc2cc(S(=O)(=O)NC(Cc3ccccc3)C(=O)O)ccc21 (stereo unspecified)	-16%	-8%
CCC(C)NC(=O)CSc1nc(-c2cccs2)nc2ccccc12 (stereo unspecified)	17%	-2%
CCOc1cccc2c(C)nc(Nc3nc(C)c(Cc4ccc(C)cc4)c(=O)[nH]3)nc12	20%	6%
CN(C)c1ccc(Nc2ncnc3c2c(-c2ccccc2)cn3-c2cccc(Cl)c2)cc1	8%	-14%
Cc1noc(Cn2c(=O)c3cc4c(cc3n(CC(=O)Nc3cccc(Cl)c3)c2=O)OCO4)n1	-17%	-2%
Cc1ccc(C(=O)NC(C)C23CC4CC(CC(C4)C2)C3)s1 (stereo unspecified)	-16%	9%
Cc1noc(C)c1C1SCC(=O)Nc2c1c(C)nn2-c1ccccc1 (stereo unspecified)	-7%	4%
CCCNC(=O)c1ccc2c(=O)n(CCOC)c(SCC(=O)c3ccccc3)nc2c1	3%	-3%
CC(C)(C)OC(=O)NCc1ccccc1/C=C/S(=O)(=O)NCc1ccc(F)cc1	?	42%[activator]

6 compounds from above, sorted by formula weight, smallest number first:
SMILES	2A firefly	StopGo RLuc
O=C1CN(C(=O)COc2ccc(F)cc2F)c2ccccc2N1	12%	-6%
Cc1noc(C)c1C1SCC(=O)Nc2c1c(C)nn2-c1ccccc1 (stereo unspecified)	-7%	4%
Cc1ccc(NC(=O)CN2C(=O)CCn3nc(-c4cccn4C)cc32)c(Cl)c1	-1%	9%
CCOc1cccc2c(C)nc(Nc3nc(C)c(Cc4ccc(C)cc4)c(=O)[nH]3)nc12	20%	6%
Cc1nn(-c2ccc(N3CCCCC3)nn2)c(C)c1CCC(=O)Nc1cccc(F)c1	?	?
O=S(=O)(Nc1cccc(-c2ccc(N3CCCC3)nn2)c1)c1ccccc1C(F)(F)F	20%	38%[activator]

Profiles as entered above.
`COC(=O)c1ccc(/C=N/Nc2ccc(S(N)(=O)=O)cc2[N+](=O)[O-])cc1` as listed: 2A firefly: 0%; StopGo RLuc: -8%
`CC(C)c1ccc(NC(=O)Cn2nnc(C(=O)NCc3ccc(Cl)cc3)c2N)cc1` as listed: 2A firefly: -2%; StopGo RLuc: -5%

(list continues)
SMILES	2A firefly	StopGo RLuc
Cc1ccc2oc(C(=O)Nc3ccc(S(=O)(=O)Nc4ncccn4)cc3)cc(=O)c2c1	-10%	-2%
CCOC(C(=O)OCCN(C)C)(c1ccccc1)c1ccccc1	-14%[11.5 µM]	-5%
O=C1CSc2ccc(C(=O)NCc3ccc(C(=O)O)cc3)cc2N1	5%	-8%
CSc1ccccc1NC(=O)CCS(=O)(=O)c1nc(-c2ccc3c(c2)OCO3)cc(C(F)(F)F)n1	-24%	-16%
O=C(Nc1ccc(Cl)c(C(F)(F)F)c1)c1cc2nc(-c3ccc4c(c3)OCO4)cc(C(F)(F)F)n2n1	0%	2%
CCOC(=O)c1c(-c2ccc(F)cc2)csc1NC(=O)c1cccc(OC)c1	-1%	-1%
CCN(CC)S(=O)(=O)c1cccc(C(=O)OCc2cnc(-c3ccccc3)s2)c1	-4%	-12%
NC(=O)c1ccc(NC(=O)c2cc(C3CC3)nc3ccccc23)cc1	-9%	-11%
O=C(c1ccc2c(Cl)c3c(nc2c1)CCCC3)N1CCN(c2ccccc2)CC1	-5%	-4%
Cn1cc(C(=O)Cn2cnc3ccccc32)c2ccccc21	?	?
Cc1cc2c3cccn3ccn2c1	-2%	-17%
Cc1nc2ccc(C(=O)NCC(=O)NCC(F)(F)F)cc2nc1C	0%	10%
CCOc1ccc(C)cc1S(=O)(=O)n1ccnc1CC	4%	27%
CCOc1ccccc1CN1CCCCCC1c1sccc1C (stereo unspecified)	77%[activator]	22%
CCOc1cc(C(=O)NCc2ccc3c(c2)CCN3C(=O)CC)cc(OCC)c1OCC	-13%	-2%
N#Cc1ccc(F)c(COC(=O)c2ccccc2C(=O)c2ccc(Cl)cc2)c1	10%	14%
O=C(Nc1ccc2c(c1)OCO2)c1oc2ccccc2c1COc1ccccc1	83%[activator]	0%
CCN(c1ccccc1)S(=O)(=O)c1c(-c2ccc(C)cc2)csc1C(=O)OC	?	-28%
CC(C)NC(=O)c1ccc(C2SCCS2)cc1	0%	-6%
O=C(CCc1ncc(-c2ccccc2F)o1)Nc1ccccc1Cl	29%	-7%
Cc1ccc(-c2nc(C)c(CCNS(=O)(=O)c3ccc(F)c(C(F)(F)F)c3)s2)cc1	192%[activator]	174%[activator]
O=S(=O)(c1ccc(Br)cc1)c1nnn2c1nc(NCc1ccc3c(c1)OCO3)c1sccc12	-30%	-13%
Cc1c(Cl)cccc1NC(=O)Nc1cc2c(cc1Oc1ccccc1)n(C)c(=O)n2C	-5%	7%
CCC(CC)C(=O)N1CCc2cc(OC)c(OC)cc2C1COc1ccc(C(=O)OC)cc1 (stereo unspecified)	-3%	-5%
O=C(NCCc1ccco1)C1CCN(S(=O)(=O)c2ccccc2)CC1	-2%	-8%

Continuation:
SMILES	2A firefly	StopGo RLuc
O=S(=O)(Nc1cccc2cccnc12)c1ccc(F)cc1	?	22µM*
CC(C)CCNC(=O)N1CCC2(CC1)NC(=O)c1ccccc1O2	2%	-5%
Cc1nn(-c2ccccc2)c2c1N(CCCC(=O)NCc1ccccc1)C(=O)CS2	5%	21%
Cc1ccc(NC(=O)CN(C)C(=O)C2CCN(C(=O)c3ccc(Cl)cc3)CC2)cc1	-10%	-7%
FC(F)Sc1ccc(NC(=S)NCCC2=CCCCC2)cc1	?	?
CCNC(=O)C(C)NC(=O)C1CCC(C(C)(C)C)CC1 (stereo unspecified)	17%	6%
COC(=O)c1cccc(CN2C(=O)SC(Nc3ccc(C)cc3)C2=O)c1 (stereo unspecified)	-9%	-3%
O=c1c(=O)n(Cc2ccc(Cl)cc2)ccn1Cc1ccc(F)cc1	-11%	-12%
CCc1ccccc1NC(=O)Nc1c[nH]c(=O)[nH]c1=O	-13%	1%
Cc1ccnc(NC(=O)Cc2ccc(Br)cc2)c1	290%[activator]	34%[activator]
CC(C)N(Cc1nc(-c2ccc(Cl)cc2)no1)C(=O)c1ccc(C(C)(C)C)cc1	-6%	-1%
CCOc1ccc(C2C(C(=O)Nc3ccc(OC)cc3)=C(C)Nc3nc(SCc4ccc(Cl)cc4)nn32)cc1 (stereo unspecified)	7%	0%

High-throughput results as filed in PubChem BioAssay.

An excerpt. The share of hits here may be higher or lower than overall.
